Compound activity deposited in PubChem by several laboratories.
Vif A3G = inhibitors of Vif binding to APOBEC3G peptide, primary screen, biochemical, TR-FRET, GST-Vif 1-94, biotin-A3G peptide, dose response retest (AID 1117319); 260,000 tested, 0.57% active; TR-FRET GST-Vif / biotin-A3G peptide binding; higher % means a stronger effect; test concentration not given here; strong numbers were not always called active; inhibition, %; hits with a dose series show IC50 in µM;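 active = above the screen mean plus three standard deviations and confirmed in dose response; inconclusive = results disagree or hit not tested in dose response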;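 also: Vif residues 1-94 fused to GST binding biotinylated APOBEC3G peptide 110-148; 0% = full assay without inhibitor and 100% = GST in place of GST-Vif; retest series ran down from 100 µM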
UCH37 DUB inh = blocks the human deubiquitinase UCH37; Q9Y5K5; purified proteasome/UCH37, Ub-AMC cleavage fluorescence; inhibition, % (concentration not given with the values); 330,000 tested, 0.33% active; AID 588478;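 active = mean of two replicates above 20%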;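 also: 0% = compound-free wells with enzyme and 100% = wells lacking proteasome; stock transfer was 100 nL into about 20 µL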
Target sequence (Q9Y5K5 whole entry, looked up): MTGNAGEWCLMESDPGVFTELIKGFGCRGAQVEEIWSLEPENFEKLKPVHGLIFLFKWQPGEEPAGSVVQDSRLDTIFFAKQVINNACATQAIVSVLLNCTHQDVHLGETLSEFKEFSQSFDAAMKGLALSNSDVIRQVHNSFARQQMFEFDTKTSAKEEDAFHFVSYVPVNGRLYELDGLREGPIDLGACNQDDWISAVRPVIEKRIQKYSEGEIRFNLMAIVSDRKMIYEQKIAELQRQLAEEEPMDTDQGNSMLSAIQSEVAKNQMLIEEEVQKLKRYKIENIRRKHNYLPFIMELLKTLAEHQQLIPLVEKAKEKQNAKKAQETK
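Material: human UCH37 enzyme supplied as purified proteasome complex / Amount: 0.15 nM proteasome as dispensed / Buffer or medium: pH 7.4 Tris-HCl (50 mM) with ovalbumin, ATP-MgCl2, DTT / Times: preincubation 30 min, reaction 25 min, room temperature / Technique: AMC fluorescence from Ub-AMC cleavage, excitation 355 nm, emission 460 nm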
Bfl-1 A1 inh = inhibitors of the anti-apoptotic protein A1, read as caspase activation; MEF A1-2A-BIM cells, Caspase-Glo 3/7 luminescence, 3 h; percent of clofoctol response, vehicle zero; caspase activation, % (no concentration beside the values); 330,000 tested, 0.066% active; AID 2462;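 active = over half of replicate activation scores above 10%, or exactly half above 10 with the replicate mean above 10; inconclusive = replicate mean below 10 yet half the replicates above 10; inactive = over half of replicates below 10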;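 also: wells of about 30 µL received 50 nL stock; many hits fall short of the cut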
LANA-H2B inh = blocks KSHV LANA binding to histone H2A/H2B. Q9QR71. cell-free LANA-H2A/H2B peptide, fluorescence polarization. inhibition, % (concentration not given with the values). 320,000 tested, 0.6% active; in the data active = inhibition mostly above about 10%, no sharp cut-off; inactive = mostly below about 6.7%;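 also: stock transfer was 7.5 nL into about 10 µL; 0% = median of vehicle wells and 100% = median of positive control wells; one replicate is shown; the record names a cut of 25% in any replicate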
B2AR ag = human beta-2 adrenergic receptor agonism by FAP; Am2.2-beta2AR cells, FAP receptor internalization, flow cytometry; reference of the scale not given here; response, % (test concentration not listed); 340,000 tested, 0.43% active;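 active = response above a set limit, near 3 SD of response in nonfluorescent compounds, cut at about 42% in these data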;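 also: stock transfer was 100 nL into about 11 µL; a reference agonist was the positive control; negative values mostly stem from fluorescent compounds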
HNF4A DNA FP = change in binding of human HNF4 alpha to DNA | 360,000 tested, 0.3% active | activity change, % at 10 µM | HNF4a-FITC DNA binding, fluorescence polarization, 1 h | P41235 | AID 1224865; in the data active = activity change above about 30%, passing the limit was not always enough;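 also: controls were the assay level and a saturating level of protein; the project sought stronger binding though the title names inhibitors; some compounds called inactive have numbers as strong as hits; positive values seem to mean higher polarization but the record does not say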
Target sequence (P41235 whole entry, looked up): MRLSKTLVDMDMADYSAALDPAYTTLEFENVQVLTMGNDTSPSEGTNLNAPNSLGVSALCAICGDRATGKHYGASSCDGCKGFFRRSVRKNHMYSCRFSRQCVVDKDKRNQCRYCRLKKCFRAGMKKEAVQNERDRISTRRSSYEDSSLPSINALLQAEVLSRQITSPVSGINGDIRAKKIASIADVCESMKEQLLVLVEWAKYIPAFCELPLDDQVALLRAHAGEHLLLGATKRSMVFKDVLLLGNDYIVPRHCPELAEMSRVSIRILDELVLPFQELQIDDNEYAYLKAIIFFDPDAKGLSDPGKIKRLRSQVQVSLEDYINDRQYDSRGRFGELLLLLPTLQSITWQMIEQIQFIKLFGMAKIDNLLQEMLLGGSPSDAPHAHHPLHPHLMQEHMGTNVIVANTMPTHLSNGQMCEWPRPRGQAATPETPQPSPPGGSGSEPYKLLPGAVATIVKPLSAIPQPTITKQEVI
Ecoli growth = inhibitors of Escherichia coli growth | 330,000 tested, 0.21% active | OD600, 23 h; stronger effect = lower value | OD600 absorbance (concentration not given with the values);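 active = OD600 absorbance below the run mean of sample wells minus 3.6 SD, in any replicate, cut at about 0.56 in these data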;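 also: stock transfer was 300 nL into about 60 µL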
Starred values were filed as active, the others as inactive; ? = inconclusive; . = not tested or not shown; & = joins results of further samples. Rows are unselected. Share with any hit: about 2.1%.

item	structure	Vif A3G	UCH37 DUB inh	Bfl-1 A1 inh	LANA-H2B inh	B2AR ag	HNF4A DNA FP	Ecoli growth
1	CC(C)(C)Nc1nc(SCc2ccccc2)nc(N2CCOCC2)n1	-8%	3.9	1.0	3.6	4	-2.3	0.69
2	CSCCC(NS(=O)(=O)c1ccccc1F)C(=O)NCCCn1nc(C)cc1C (stereo not given)	-13%	4.9	-0.8	6.0	-3	-0.6	0.67
3	COc1cc(CCC(=O)Nc2ccc(Cl)c(C(F)(F)F)c2)cc(OC)c1OC	5%	1.6	-0.4	5.1	-11	1.3	0.7
4	COc1ccc(CCNC2=NCCS2)cc1OC	.	2.6	0.4	-0.3	8	2.4	0.65
5	Cc1cc(=O)oc(C)c1C(=O)NCC1CCCO1 (stereo not given)	11%	0.9	0.6	3.8	-5	-1.9	0.7
6	O=C(Cn1nnc(-c2ccc(NC(=O)c3ccccc3F)cc2)n1)NCc1ccc(F)cc1	4%	-19	1.9	0.2	-7	2.0	0.72
7	CCN(C(=O)CSc1n[nH]c(-c2cc(Cl)ccc2OC)n1)C1CCS(=O)(=O)C1 (stereo not given)	-4%	0.7	.	.	-2	4.5	0.68
8	CCn1c(SCc2cccnc2)nc2c1c(=O)n(C)c(=O)n2C	5%	1.0	0.8	1.4	13	1.2	0.67
9	NNC(=O)c1sc2cc(C(F)(F)F)cnc2c1-c1ccccn1	4%	-0.6	0.4	3.9	11	-1.6	0.59
10	CCOC(=O)c1sc(SCC(=O)Nc2ccc(N(C)C)cc2)nc1N	15%	6.7	0.0	0.9	11	1.8	0.69
11	O=C(COC(=O)c1ccc[nH]c1=O)NC1CCCCCCC1	?	-1.8	0.1	1.7	-7	0.6	0.69
12	COC(=O)N/N=C\c1cc(Br)ccc1OCc1ccccc1	7%	.	0.9	.	-7	3.3	.
13	O=C(NCCc1c[nH]c2ccccc12)c1ccc2[nH]c(=O)c(=O)[nH]c2c1	1%	-1.3	0.0	5.4	-3	-2.4	0.64
14	CCc1ccc(/C(C)=N/NC(=O)C(O)c2ccccc2)s1 (stereo not given)	.	.	0.9	-3.1	-4	1.2	.
15	COc1ccc2cc(C3C(C#N)=C(N)OC(C)=C3C(C)=O)c(Cl)nc2c1 (stereo not given)	19µM*	-5.9	0.3	6.6	7	2.0	0.69
16	CC12CCC(=O)N1C(C(=O)Nc1nnc(SCc3ccc(F)cc3)s1)CS2 (stereo not given)	.	-0.6	-0.1	1.8	0	-1.0	0.69
17	Cc1cc(OC(=O)c2cc([N+](=O)[O-])ccc2Cl)c([N+](=O)[O-])c(=O)[nH]1	.	6.8	0.3	-4.2	-8	2.0	0.71
18	COc1ccc(S(=O)(=O)Cc2ccc(C(=O)NCCCN(C)c3ccccc3)o2)cc1	1%	4.8	-0.1	-1.4	-16	0.6	0.72
19	CN(C)c1nc(NCc2ccccc2)nc(N/N=C/c2ccc(Cl)cc2Cl)n1	-4%	.	0.0	5.9	-2	-0.8	.
20	Cc1c(C(=O)O)oc2ccc3c(c12)C(O)CC(C)(C)O3 (stereo not given)	-1%	-7.3	0.1	2.5	1	-0.7	0.68
21	COc1ccc(/C(N)=N/OC(=O)c2cccc([N+](=O)[O-])c2C)cc1OC	1%	-0.1	0.0	5.6	1	0.5	.
22	COc1ccc(-n2c(=S)[nH]c3cc(C(=O)NCCCN4CCOCC4)ccc3c2=O)c(OC)c1	7%	7.3	0.0	-1.9	0	-0.1	0.67
23	CCOC(=O)c1ccc(-n2[nH]c(-c3ccccc3)cc2=O)cc1	13%	6.1	0.6	2.4	17	1.3	0.68
24	CC(=O)c1ccc(N2CCN(C(=S)Nc3ccccc3C(F)(F)F)CC2)cc1	24%	4.5	-0.4	-3.2	-2	-0.1	0.73
25	Cc1ccc(CN2CC34C=CC(O3)C(C(=O)NCc3ccco3)C4C2=O)cc1 (stereo not given)	3%	1.3	-0.2	-0.6	-4	-1.6	0.65
26	O=C(COC(=O)C1CC2C=CC1C2)Nc1ccccc1[N+](=O)[O-] (stereo not given)	.	1.3	-1.0	-5.2	4	0.0	0.7
27	COc1ccc(CCC(=O)Nc2nc3ccccc3[nH]2)cc1	-1%	-6.4	-1.1	4.7	4	3.1	0.76
28	COc1cc(C(=O)NCc2cccc3ccccc23)ccc1OCc1ccccc1	-11%	1.2	0.0	-6.6	-2	-1.0	0.7
29	COc1ccc(-c2csc(-n3ncc(-c4cccs4)c3N)n2)cc1	-3%	2.2	-0.4	-4.4	-8	3.3	0.72
30	CCOC(=O)CSc1nc(-c2ccc(OC)cc2)ns1	2%	2.5	-0.4	-4.4	5	3.0	0.73
31	CCCCCn1c(=N)n(CC(O)COc2ccccc2OC)c2ccccc21 (stereo not given)	4%	3.6&4.9	0.2&0.3	2.5&-2.1	6&30	1.7&3.1	0.75&0.69
32	O=C(c1cccs1)N1CCN(c2ncc(Br)cn2)CC1	.	1.3	1.1	-0.2	2	2.2	0.62
33	CCCCC(=O)N(CCOC)c1nnc(-c2ccc(OC)cc2)s1	1%	-4.2	2.4	-5.0	-6	-3.6	0.71
34	O=C(O)c1ccc(N2C(=O)CC(N3CCN(c4cccc(Cl)c4)CC3)C2=O)cc1 (stereo not given)	7%	3.3	0.5	-0.2	-2	-0.9	0.69
35	COc1cccc(NC(=S)/C(=C(\[O-])c2ccc(C)c([N+](=O)[O-])c2)[n+]2ccccc2)c1	3%	7.0	-1.1	0.2	0	4.5	0.67
36	COC(=O)C(C)Oc1ccc2c(c1)O/C(=C\c1ccco1)C2=O (stereo not given)	15%	-9.5	0.9	1.2	-1	1.8	0.68
37	Cc1ccc(-c2ccnc3c(Cl)c(C)nn23)cc1	.	-32	-0.5	5.6	-20	2.5	0.68
38	NC(=S)N/N=C/c1coc2c(ccc3ccccc32)c1=O	.	.	-1.5	-187	26	2.0	.
39	O=C1c2ccccc2C(=O)N1C1(C(=O)NC2(C(=O)O)CCCC2)CCCC1	-4%	2.0	.	.	1	4.6	0.68
40	O=C(O)c1c2c(nc3ccccc13)/C(=C/c1cccc([N+](=O)[O-])c1)CCC2	.	14	-0.3	2.5	0	1.4	0.7
41	O=C(Oc1ccc2ccc(OC(=O)N3CCOCC3)cc2c1)N1CCOCC1	23%	1.1	-1.4	0.8	0	-1.7	0.72
42	COc1ccc(N2CCN(c3cnc4ccccc4n3)CC2)cc1	-1%	-1.7	-1.4	-0.7	3	1.5	0.72
43	C=CCn1c(-c2cccn(Cc3ccc(Cl)cc3)c2=O)n[nH]c1=S	3%	-6.6	0.0	2.8	5	1.0	0.69
44	COc1ccccc1C(C(C(=O)c1ccccc1)N1CCOCC1)N1CCOCC1 (stereo not given)	-7%	2.3	.	.	-1	4.1	0.73
45	COc1ccc(C2OC(=O)c3ccccc3S2)cc1 (stereo not given)	-7%	1.9	0.8	0.4	-1	-3.5	0.71
46	CC(C)(C)S(=O)(=O)c1ccsc1C(=O)O	21%	4.3	0.0	-4.0	-3	2.6	0.67
47	Cc1ccc(OCc2ccc(C(=O)NCC3CCCO3)cc2)cc1C (stereo not given)	-6%	2.1	-0.6	.	-3	-1.3	0.68
48	Cc1ccccc1C(=O)Nc1cc(S(=O)(=O)N2CCCCC2)ccc1N1CCN(C)CC1	-6%	4.0	0.8	-4.1	-4	0.2	0.66
49	C#Cc1cccc(N2C(=O)C3C4C=CC(C3C2=O)C2C(=O)N(c3cccc(C#C)c3)C(=O)C42)c1 (stereo not given)	-1%	.	.	.	-4	-0.9	.
50	CC1CCCN(C(=O)COC(=O)Cc2c(F)cccc2Cl)C1 (stereo not given)	15%	3.8	0.6	-2.2	-2	-2.0	0.7
51	CCN(CCCNC(=O)CC1Oc2ccc(C)cc2NC1=O)Cc1ccccc1 (stereo not given)	-4%&-1%	2.6	0.2	6.1	1	-3.4	0.74
52	O=C(COC(=O)c1ccc(S(=O)(=O)NCc2ccco2)cc1)c1ccccc1	6%	1.2	0.2	-1.7	-7	2.4	0.72
53	Cn1c(=O)[nH]c(=O)c2c1nc(N1CCNCC1)n2Cc1ccccc1Cl	.	2.4	-0.1	-1.3	4	-1.0	0.68
54	NCCOc1ccc(C23CC4CC(CC(C4)C2)C3)cc1	-4%	4.6	1.0	-1.0	15	-1.6	0.47*
55	C/C=C/C=N/Nc1nc(-c2ccc([N+](=O)[O-])cc2)cs1	16%	.	0.9	1.3	-1	5.2	.
56	Cc1ccc(C(=O)NN2C(=O)c3ccc(S(=O)(=O)c4ccc(C(=O)O)cc4)cc3C2=O)cc1	-3%	0.3	-0.3	-1.7	-6	0.0	0.66
57	CCOC(=O)c1sc2nc(C)nc(Nc3ccc(OC)cc3)c2c1C	0%	-30	-1.2	-7.7	1	2.6	0.67
58	c1ccc(Oc2cc(-n3cncn3)ncn2)cc1	2%	2.7	-2.8	3.8	-12	-1.0	0.71
59	CCCCNC(=O)C(=O)NCC1CCCN1S(=O)(=O)c1cccs1 (stereo not given)	2%	2.2	0.4	-3.4	-4	5.9	0.64
60	O=C(COc1cc2oc(=O)c3c(c2cc1Cl)CCC3)Nc1ccccn1	.	-36	-0.8	4.2	1	0.7	0.67

Going on with the list:
item	structure	Vif A3G	UCH37 DUB inh	Bfl-1 A1 inh	LANA-H2B inh	B2AR ag	HNF4A DNA FP	Ecoli growth
61	Cc1[nH]c2ccccc2c1C(c1ccncc1)N1CCN(c2ccccc2F)CC1 (stereo not given)	.	-1.4	0.5	-7.9	3	1.7	0.67
62	CC(=O)OCC(OC(C)=O)C(OC(C)=O)C(OC(C)=O)C(=O)Nc1cccc(C)c1 (stereo not given)	.	1.8	0.0	9.1	-4	-3.1	0.67
63	COc1ccc(/C=N/NC(=O)Cn2nnc3ccccc32)cc1OC	.	.	-0.1	-6.1	1	5.6	.
64	CCOC(=O)CN1C2=NCCCN2c2ccccc21	17%	5.8	2.5	-5.2	-12	0.5	0.68
65	COc1ccc(OC)c(Cc2nnc(CCC(=O)NC3C4CC5CC(C4)CC3C5)o2)c1 (stereo not given)	.	4.6	-0.2	1.6	-4	1.4	0.69
66	CSc1ccccc1C(=O)Nc1cc(C)ccc1C	23%	0.0	0.4	-0.7	2	0.7	0.7
